Source: PubChem (Broad Institute)
FGF22 binding – binders of human FGF22 protein, primary screen, FGF22 synaptogenesis inhibitor project, biophysical, thermal shift, single point. recombinant FGF22 thermal shift, SYPRO orange fluorescence; percent of sucrose octasulfate shift, DMSO zero. 1.5% of 340,000 active. Fibroblast growth factor 22 (Homo sapiens), Q9HCT0. calls only at 9.99 µM;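 active = melting point raised past a set limit in the mean and every replicate; three in four hits are not shown here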
Target sequence (Q9HCT0 whole entry, looked up): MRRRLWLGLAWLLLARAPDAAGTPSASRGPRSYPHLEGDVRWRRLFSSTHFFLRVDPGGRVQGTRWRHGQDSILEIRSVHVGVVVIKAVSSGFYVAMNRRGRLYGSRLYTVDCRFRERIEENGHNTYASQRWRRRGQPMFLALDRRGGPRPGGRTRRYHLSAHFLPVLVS
Ecoli rRNA inh – reduced GFP signal of wild-type E. coli, primary screen, bacterial rRNA inhibitor project, GFP/RFP fluorescence, OD600, single point; 1.6% of 350,000 active; E. coli WT GFP vs humanized-ribosome RFP mutants, 24 h; active compounds read low; DMSO median 0, no signal -100; GFP signal change (wild-type ribosome), % (test concentration not listed);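 active = significant combined selectivity score with lowered wild-type GFP, culture density cut under 30%, mutant RFP and density less affected; inactive = any of these conditions unmet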; also: one replicate is shown; some compounds called inactive have numbers as strong as hits
Ecoli rRNA inh OD600 – further read-out of Ecoli rRNA inh, marked with its call; OD600 change, %; measured here: OD600 growth;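 optical density of the mix in the first replicate; 0 = DMSO median and -100 = no signal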
Ecoli rRNA inh RFP – further read-out of Ecoli rRNA inh, marked with its call; RFP signal change, %; measured here: RFP humanized mutant strains;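 first replicate; 0 = DMSO median and -100 = no signal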
Active calls of the source: *; i = inactive; & = joins results of further samples. These rows are one share of the data; count on the stated rates, not on these rows.

Order of results: FGF22 binding, Ecoli rRNA inh, Ecoli rRNA inh OD600, Ecoli rRNA inh RFP
1: CC(C)C#Cc1ccc2c(c1)O[C@H](CN(C)C(=O)c1ccccn1)[C@@H](C)CN([C@@H](C)CO)S2(=O)=O
    i, -2.7, -7.1, -0.4
2: C[C@H]1CN([C@@H](C)CO)C(=O)c2cc(NC(=O)CCC(F)(F)F)ccc2O[C@@H]1CN(C)C(=O)Nc1ccccc1
    i, 2.7, 8.0, -1.0
3: Cc1ccc(-c2ccc3c(c2)O[C@@H](CN(C)Cc2ccc(F)cc2)[C@@H](C)CN([C@H](C)CO)S3(=O)=O)cc1
    i, -4.1, -3.7, -2.1
4: COc1ccc2c3c(n(C)c2c1)[C@H](CO)N(C(=O)C1CCC1)CC31CN(C(=O)CN(C)C)C1
    i, 0.4, 3.3, 0.7
5: C[C@@H]1CN([C@H](C)CO)C(=O)Cc2cc(NC(=O)C3CCCCC3)ccc2O[C@H]1CN(C)C(=O)Nc1ccc2c(c1)OCO2
    i, 0.1, -5.3, -2.9
6: C[C@H](CO)N1C[C@H](C)[C@H](CN(C)S(=O)(=O)c2cn(C)cn2)OCCCC[C@H](C)Oc2ccc(NC(=O)c3ccccc3)cc2C1=O
    i, -1.3, -0.5, -1.7
7: O=C(C[C@@H]1CC[C@H](NC(=O)C2CC2)[C@H](CO)O1)Nc1ccccc1
    i, -0.8, -2.4, 1.0
8: COc1ccc(CN2CC3(C2)CN(C(=O)CN(C)C)[C@H](CO)c2[nH]c4cc(OC)ccc4c23)cc1
    i, 6.4, 7.3, -0.9
9: COc1ccc(S(=O)(=O)Nc2cccc3c2O[C@H](CN(C)C(=O)NC(C)C)[C@@H](C)CN([C@@H](C)CO)C3=O)cc1
    i, 5.7, 0.1, 0.5
10: C[C@@H]1CN([C@H](C)CO)C(=O)Cc2cc(NC(=O)Cc3ccccc3)ccc2O[C@H]1CN(C)C(=O)Nc1ccc(C(F)(F)F)cc1
    i, 4.9, 6.9, 0.5
11: C[C@@H]1CCCCO[C@H](CN(C)Cc2ccc(C(=O)O)cc2)[C@@H](C)CN([C@H](C)CO)C(=O)c2cc(NS(=O)(=O)c3cn(C)cn3)ccc2O1
    i, 3.7, 12.1, -3.3
12: CC(C)NC(=O)N(C)C[C@H]1Oc2cc(C#Cc3cccc(F)c3)ccc2S(=O)(=O)N([C@H](C)CO)C[C@@H]1C
    i, -7.7, -21.2, 0.6
13: C[C@H]1CN([C@@H](C)CO)C(=O)c2cccc(NS(=O)(=O)c3cccs3)c2O[C@@H]1CN(C)S(=O)(=O)c1ccccc1
    i, 0.6, 5.9, -1.9
14: CCC(=O)N(C)C[C@@H]1Oc2cc(C3=CCCC3)ccc2S(=O)(=O)N([C@H](C)CO)C[C@@H]1C
    i, 0.4, -5.7, -1.9
15: C[C@@H]1CCCCO[C@@H](CN(C)C(=O)Nc2cccc3ccccc23)[C@@H](C)CN([C@H](C)CO)C(=O)c2cc(NC(=O)Nc3cccc4ccccc34)ccc2O1
    i, 4.4, 2.6, 0.0
16: C[C@@H]1CN([C@H](C)CO)C(=O)c2cc(NC(=O)c3ccncc3)ccc2O[C@H]1CN(C)Cc1ccc(Oc2ccccc2)cc1
    i, -0.2, 3.2, -0.7
17: CCCNC(=O)N1C[C@H](C)[C@@H](OC)CN(C)C(=O)c2cc(NC(=O)CC)ccc2OC[C@@H]1C
    i, 5.5, 3.4, -0.1
18: O=C(C[C@H]1C=C[C@@H](NS(=O)(=O)c2ccc(F)cc2)[C@@H](CO)O1)N1CCC(Cc2ccccc2)CC1
    i, -1.3, -15.4, -1.4
19: Cc1noc(C)c1S(=O)(=O)Nc1ccc2c(c1)CC(=O)N([C@H](C)CO)C[C@H](C)[C@H](CN(C)Cc1ccc(Cl)c(Cl)c1)O2
    i, -3.3, -12.9, 1.2
20: C[C@@H]1CCCCO[C@H](CN(C)C(=O)CCC(F)(F)F)[C@@H](C)CN([C@H](C)CO)C(=O)c2cc(NC(=O)Nc3ccccc3)ccc2O1
    i, -3.5, 0.2, -2.0
21: C[C@H]1CN([C@@H](C)CO)C(=O)Cc2cc(N(C)C)ccc2O[C@H]1CN(C)Cc1ccc2c(c1)OCO2
    i, 3.3, 14.9, 0.4
22: CCC(=O)N1CC2(C1)[C@H](c1ccccc1)[C@H](CO)N2C(=O)c1ccncc1
    i, 0.6, 8.4, -4.5
23: O=C(Nc1ccc(Cl)cc1)N[C@H]1CC[C@@H](CCn2cc(Cc3ccccc3)nn2)O[C@@H]1CO
    i, -2.5, -27.8, 9.0
24: COc1cccc(CNC(=O)C[C@@H]2C=C[C@@H](NC(=O)C3CCOCC3)[C@@H](CO)O2)c1
    i, -1.5, -0.6, 0.0
25: CNC[C@H]1OCCCC[C@@H](C)Oc2ccc(NC(=O)Nc3c(C)noc3C)cc2C(=O)N([C@@H](C)CO)C[C@@H]1C
    i, 10.9, -2.4, -0.3
26: O=C(C[C@H]1CC[C@H]2[C@@H](COC[C@@H](O)CN2C(=O)c2ccc(F)cc2)O1)N1CCCCC1
    i, 2.4, 8.0, 2.2
27: COCC#Cc1ccc2c(c1)O[C@@H](CN(C)C(=O)COC)[C@@H](C)CN([C@H](C)CO)S2(=O)=O
    i, 4.5, 10.5, 0.1
28: CCc1c(-c2ccc(Cl)cc2)ncn1CCc1ccccc1OC
    i, -55.6, -78.6, -16.2
29: CCNC(=O)[C@@H]1[C@@H](CO)[C@@H]2Cn3c(ccc(-c4ccccc4)c3=O)[C@@H]2N1Cc1ccc2c(c1)OCO2
    i, -6.2, -10.2, -0.9
30: CCC(=O)N1C[C@H](C)[C@@H](OC)CN(C)C(=O)c2ccc(NS(C)(=O)=O)cc2OC[C@@H]1C
    i, 2.7, -0.8, 1.7
31: O=C(c1ccc(F)cc1)N1[C@@H](CO)[C@@H]2c3ccccc3NC[C@@H]21
    i, 3.5, 17.0, -1.5
32: Cc1noc(C)c1NC(=O)N(C)C[C@H]1OCCCC[C@H](C)Oc2ccc(NC(=O)C3CCCCC3)cc2C(=O)N([C@H](C)CO)C[C@@H]1C
    i, 5.5, 5.4, -1.5
33: COc1ccc(C#Cc2cnc3c(c2)C(=O)N([C@H](C)CO)C[C@H](C)[C@H](CN(C)C(C)=O)O3)cc1
    i, 2.4, 11.3, -1.2
34: COc1ccc(C(=O)N2C[C@@H]3[C@H](c4ccccc42)[C@@H](CO)N3Cc2ccccc2Cl)cc1
    i, -22.9, -39.2, -0.1
35: CO[C@H]1CN(C)C(=O)c2cc(NC(=O)Nc3ccccc3F)ccc2OC[C@@H](C)NC[C@@H]1C
    i, -0.8, 5.7, -1.3
36: Cc1noc(C)c1NC(=O)Nc1ccc2c(c1)C(=O)N([C@H](C)CO)C[C@@H](C)[C@H](CN(C)Cc1ccc(Oc3ccccc3)cc1)O2
    i, 1.1, -0.6, -1.9
37: COc1ccc(NC(=O)Nc2ccc3c(c2)C(=O)N([C@@H](C)CO)C[C@@H](C)[C@@H](CN(C)S(=O)(=O)c2ccc(F)cc2)O3)cc1
    i, -1.8, -26.1, -3.3
38: O=S(=O)(c1ccccc1)N1CCCCN2[C@@H](CO)[C@H](c3ccc(-c4ccccc4)cc3)[C@@H]2C1
    i, 0.5, 3.1, 9.4
39: O=C(C[C@H]1CC[C@@H](NC(=O)Nc2ccc3c(c2)OCO3)[C@@H](CO)O1)NCc1ccc2c(c1)OCO2
    i, -2.1, -0.2, -2.9
40: COc1ccc(S(=O)(=O)Nc2ccc3c(c2)CC(=O)N([C@H](C)CO)C[C@@H](C)[C@@H](CN(C)Cc2ccc(Cl)c(Cl)c2)O3)cc1
    i, 3.0, -3.6, 10.1
41: CCCNC(=O)C[C@@H]1CC[C@@H]2[C@@H](COc3ccc(NC(=O)Cc4cccs4)cc3C(=O)N2C)O1
    i, 4.7, 8.8, 1.2
42: Cc1cccc(S(=O)(=O)N2CCCCN3[C@@H](CO)[C@@H](c4ccc(C#C[C@@H](C)O)cc4)[C@@H]3C2)c1
    i, 1.3, -12.4, 3.4
43: C[C@@H]1CN([C@@H](C)CO)C(=O)c2cc(-c3ccc(F)cc3)cnc2O[C@H]1CN(C)Cc1ccc(C(=O)O)cc1
    i, 3.2, 7.8, -2.0
44: O=C(C[C@H]1CC[C@@H]2[C@H](COC[C@H](O)CN2S(=O)(=O)c2ccc(Cl)cc2)O1)NCc1ccc(Cl)c(Cl)c1
    i, -46.5, -72.1, -10.8
45: C[C@@H]1CN([C@H](C)CO)C(=O)c2cc(NC(=O)Cc3ccccc3)ccc2O[C@@H](C)CCCCO[C@H]1CN(C)Cc1ccccc1
    i, 2.9, 0.9, -1.6

3 entries from above, arranged by formula weight, descending:
Order of results: FGF22 binding, Ecoli rRNA inh, Ecoli rRNA inh OD600, Ecoli rRNA inh RFP
37: COc1ccc(NC(=O)Nc2ccc3c(c2)C(=O)N([C@@H](C)CO)C[C@@H](C)[C@@H](CN(C)S(=O)(=O)c2ccc(F)cc2)O3)cc1
    i, -1.8, -26.1, -3.3
44: O=C(C[C@H]1CC[C@@H]2[C@H](COC[C@H](O)CN2S(=O)(=O)c2ccc(Cl)cc2)O1)NCc1ccc(Cl)c(Cl)c1
    i, -46.5, -72.1, -10.8
33: COc1ccc(C#Cc2cnc3c(c2)C(=O)N([C@H](C)CO)C[C@H](C)[C@H](CN(C)C(C)=O)O3)cc1
    i, 2.4, 11.3, -1.2

New compounds follow.
Order of results: FGF22 binding, Ecoli rRNA inh, Ecoli rRNA inh OD600, Ecoli rRNA inh RFP
46: CCN1CCN(c2c(S(=O)(=O)c3ccc(Cl)cc3)cnc3ccccc23)CC1
    i, -4.5, -1.8, 1.1
47: O=C(C[C@H]1C=C[C@H](NC(=O)CN2CCOCC2)[C@H](CO)O1)NC1CCCCC1
    i, 4.7, 0.0, -0.7
48: CO[C@H]1CN(C)C(=O)c2ccc(NC(=O)c3cc(C)on3)cc2OC[C@H](C)N(C(C)=O)C[C@H]1C
    i, -0.5, 1.5, -1.6
49: C[C@@H]1CN([C@H](C)CO)C(=O)Cc2cc(NC(=O)Nc3ccc(C(F)(F)F)cc3)ccc2O[C@H]1CN(C)S(=O)(=O)c1ccc(Cl)cc1
    i, 1.2, 3.1, 0.7
50: COc1ccc(C#Cc2ccc([C@H]3[C@H](CO)N4CCCCN(C(=O)c5ccncc5)C[C@@H]34)cc2)cc1
    i, -10.8, -38.1, 23.7
51: C[C@@H]1CN([C@@H](C)CO)C(=O)c2cc(NC(=O)c3ccncc3)ccc2O[C@@H](C)CCCCO[C@H]1CN(C)Cc1ccncc1
    i, -2.8, 5.1, 0.9
52: C[C@H]1CN([C@@H](C)CO)C(=O)c2cc(NC(=O)CCCN(C)C)ccc2O[C@@H]1CN(C)S(=O)(=O)c1ccc(Cl)cc1
    i, 1.2, 1.0, -2.9
53: S=C1NCCOc2ccccc21
    i, 4.5, 7.9, -1.2
54: COc1ccc(NC(=O)Nc2ccc3c(c2)C(=O)N([C@H](C)CO)C[C@@H](C)[C@H](CN(C)Cc2ccncc2)O3)cc1
    i, 0.4, 6.0, 0.2
55: C[C@H]1CN([C@@H](C)CO)C(=O)c2cccc(NC(=O)c3ccc(-c4nccs4)cc3)c2O[C@@H]1CN(C)C(=O)Nc1ccccc1
    i, -2.5, 1.1, -3.8
56: O=C(Nc1ccc2c(c1)[C@H]1C[C@H](CC(=O)N3CCOCC3)O[C@@H](CO)[C@H]1O2)c1cccnc1
    i, 0.2, 9.4, -1.3
57: CN(C)C(=O)c1ccc(-c2ccc3c(c2)[C@@H]2[C@@H](CCN2C(=O)Cc2ccccn2)[C@H](CO)N3C)cc1
    i, -2.2, 10.9, -1.6
58: CN(C)CC(=O)N[C@@H]1CC[C@@H](CC(=O)NCc2ccc(Cl)cc2)O[C@@H]1CO
    i, -1.7, -15.4, 1.3
59: CCNC(=O)[C@H]1[C@H](CO)[C@H]2Cn3c(ccc(-c4ccccc4)c3=O)[C@H]2N1C(=O)C1CCCC1
    i, 0.5, 3.9, 0.7
60: C/C=C/c1ccc2c(c1)O[C@@H](CN(C)S(=O)(=O)c1ccccc1OC)[C@@H](C)CN([C@@H](C)CO)S2(=O)=O
    i, 0.5, 4.6, -1.3
61: CC(=O)N1[C@@H](CO)[C@@H](c2ccccc2)C12CN(Cc1ccccc1)C2
    i, 2.2, 4.0, -2.5
62: C[C@@H]1CN([C@@H](C)CO)C(=O)CCCn2cc(nn2)CO[C@H]1CN(C)S(C)(=O)=O
    i, 0.3&17.0, -0.4&13.4, -0.9&1.0
63: C[C@@H]1CN([C@H](C)CO)C(=O)Cc2cc(NC(=O)Cc3cn(C)c4ccccc34)ccc2O[C@H]1CN(C)C(=O)Nc1ccc(C(F)(F)F)cc1
    i, 1.3, 0.1, 0.4
64: COC(=O)[C@H]1[C@H](CO)[C@H]2Cn3c(ccc(-c4cccc(F)c4)c3=O)[C@H]2N1C(=O)CC1CC1
    i, 0.2, 0.2, -1.7
65: COc1cccc(CNC(=O)C[C@H]2C=C[C@@H](NC(C)=O)[C@@H](CO)O2)c1
    i, 1.3, 5.9, 1.6
66: COc1ccc(NC(=O)Nc2ccc3c(c2)C(=O)N([C@@H](C)CO)C[C@@H](C)[C@H](CN(C)C(=O)C2CCCCC2)OCCCC[C@H](C)O3)cc1
    i, -2.3, 9.1, 0.7
